TRPML1 inh: human mucolipin-1 channel inhibition; Q9GZU1; TRPML1-inducible cells, Ca2+ dye fluorescence, FDSS; active compounds read low; inhibition of EC80 agonist-evoked calcium signal; activity change, negative = inhibition, % (test concentration not listed); 0.02% of 390,000 active; AID 624415; in the data active means activity change below about -50%; inconclusive means about -30% to -50%; inactive means above about -30%;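 further: stimulus is agonist 54-4 at its EC80 concentration; on the % scale 0 is the no-effect control and ±100 the full control effect; compound concentration not given in the record; the text of the record puts the active cut at -80%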
Target sequence (Q9GZU1 whole entry, looked up): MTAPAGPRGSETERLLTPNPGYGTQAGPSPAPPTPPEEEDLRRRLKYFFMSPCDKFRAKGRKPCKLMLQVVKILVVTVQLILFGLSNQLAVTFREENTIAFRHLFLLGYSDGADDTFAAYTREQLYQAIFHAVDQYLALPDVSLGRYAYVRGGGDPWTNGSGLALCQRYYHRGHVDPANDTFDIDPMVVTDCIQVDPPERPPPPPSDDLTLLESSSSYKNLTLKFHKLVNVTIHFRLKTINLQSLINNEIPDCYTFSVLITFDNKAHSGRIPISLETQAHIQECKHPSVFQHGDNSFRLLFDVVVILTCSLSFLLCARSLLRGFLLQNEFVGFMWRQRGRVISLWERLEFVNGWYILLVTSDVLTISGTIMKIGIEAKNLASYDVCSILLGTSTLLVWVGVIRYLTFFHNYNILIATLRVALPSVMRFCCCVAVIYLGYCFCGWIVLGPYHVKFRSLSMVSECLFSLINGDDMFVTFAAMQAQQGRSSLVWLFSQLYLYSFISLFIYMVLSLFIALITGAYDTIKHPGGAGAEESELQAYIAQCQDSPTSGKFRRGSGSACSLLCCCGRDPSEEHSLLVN
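TRPML1-DL cells, Tet-induced overnight (~16 h, 37 °C) at 1,500 cells/well, were loaded with Ca8 no-wash dye plus quencher for 45-90 min at room temperature. Compounds were pinned during FDSS kinetic reading; agonist 54-4 at EC80 (4 uM final) then added.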
Menin MLL FP FL: displaces fluorescein MLL peptide from human menin; Fluorescence polarization, fluorescein-MLL peptide displacement from menin; FP activity change, % at 61.4 µM; 290,000 tested, under 10 active; inconclusive = falling polarisation curve, or a change in total fluorescence; inactive = total fluorescence flat and polarisation flat or rising; no compound was filed as active; the % refers to the polarisation; negative = inhibition;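 further: % of control where 0% means no effect; inhibitors lower the polarisation; unlabelled MLL peptide was the positive control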
TRPML1 agonist: human mucolipin-1 channel agonism. activation, % (test concentration not listed). 0.12% of 410,000 active. Q9GZU1. AID 624414. TRPML1-expressing cells, Ca2+ dye fluorescence, FDSS; host cell line not named in the record; reference of the full effect not given here; in the data active = activation above about 50%; inconclusive = about 30% to 50%; inactive = below about 30%; further: 0% is about no effect; the text of the record puts the active cut at 80%
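Calcium fluorescence on an FDSS kinetic reader gave the read-out. Tet-induced TRPML1-DL cells were plated overnight, dye-loaded (Ca8 with quencher, 45-90 min, room temperature, dark), then read 110 s after compound addition, and again 110 s after 4uM final 54-4 (EC80).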
gsp ag: activates gsp, the McCune-Albright syndrome mutation; 0.13% of 340,000 active; Potency, µM (top dose mostly 76.9 µM), without a hit: at the highest dose activation (cAMP increase), actives largely listed as activators; gsp mutant cells, cAMP HTRF, 30 min; control for the full effect not named in the record; active = well fitted activation curve with a large enough effect; inconclusive = small, poorly fitted or top-dose-only effect, or another doubt; inactive = no such curve, though single readings can be large or run the other way; cell line not stated here;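 further: phosphodiesterase inhibitor Ro 20-1724 added with compounds to block cAMP breakdown; potency means the concentration at half of the fitted maximal effect; nearly all actives have a fitted effect of over 60% in size; about a fifth of the inactives were tested at one dose only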
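Cells stably selected in G418 were plated at 2000/well, grown 16-24 hr, then given compounds in DMSO with the PDE inhibitor […] (300 uM solution added) for 30 min at 37C; cAMP was read by HTRF.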
gsp antag: antagonists of gsp mutant (McCune-Albright syndrome); 0.4% of 340,000 active; Potency, µM (highest dose often 76.9 µM), for inactives: at the highest dose activity change, negative = inhibition, hits mostly inhibitors; gsp-mutant cells, cAMP HTRF, 30 min; control for the full effect not named in the record; active = falling curve of any shape with a large fitted effect; inconclusive = falling curve, mostly with a smaller effect; inactive = flat or rising curve; cell line not stated here;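 further: intracellular cAMP measured with PDE inhibitor Ro 20-1724 present during compound exposure; potency means the concentration at half of the fitted maximal effect; on the % scale 0 is the no-effect control and ±100 the full control effect; nearly all actives have a fitted effect of over 65% in size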
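HTRF cAMP measurement after 30 min RT detection following 30 min, 37C compound treatment alongside […] (added as 300 uM solution) in G418-selected cells seeded at 2000/well and grown 16–24 h.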
ClpP mod: qHTS Assay for Activators of ClpP; ATP-dependent Clp protease proteolytic subunit (Bacillus subtilis (strain 168)), P80244; purified B. subtilis ClpP, FRET peptide cleavage, 20 min; Potency, µM (series often up to 57.5 µM), for the others: top-dose activity change, negative = active; 1.9% of 340,000 active; AID 651965, 2013; active = well fitted falling curve with a large enough effect; inconclusive = small, poorly fitted or top-dose-only effect; inactive = no such curve, though single readings can be large or run the other way; further: potency means the concentration at half of the fitted maximal effect; the source files actives as falling curves though it sought activators and does not explain the sign; nearly all actives have a fitted effect of over 65% in size; many hits overshoot -100%
Target sequence (P80244 whole entry, looked up): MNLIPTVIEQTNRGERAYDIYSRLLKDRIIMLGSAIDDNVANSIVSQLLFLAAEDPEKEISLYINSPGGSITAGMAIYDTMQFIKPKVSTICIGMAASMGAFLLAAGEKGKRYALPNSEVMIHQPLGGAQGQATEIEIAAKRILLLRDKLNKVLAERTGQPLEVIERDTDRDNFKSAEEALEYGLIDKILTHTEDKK
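Purified B. subtilis ClpP, 10 microg/mL final in Tris/HCl pH8 with KCl, BSA, glycerol and Tween-20, cleaved an Abz/nitrotyrosine-quenched decapeptide. Fluorescence (ex 320, em 430) was read at 0 and 20 min at room temperature. Delta was normalized to 5.8 microM ADEP and DMSO/no-enzyme controls.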
An asterisk follows results filed as active; u = inconclusive; x = no result given; [ ] = another dose, or the depositor's remark.

SMILES	ClpP mod	gsp ag	Menin MLL FP FL	TRPML1 inh	TRPML1 agonist	gsp antag
Cc1ccc(S(=O)(=O)NCC(c2cccnc2)N2CCN(Cc3ccccc3)CC2)cc1 (stereo not drawn)	-1.2%	1%	x	39	-0.4	1%
O=C(CN1CCN(c2ccccn2)CC1)Nc1ccc(OC(F)(F)F)cc1	x	1%	0.5	14	0.3	-4%
Cc1ccc(C(c2nnnn2C(C)(C)C)N2CCN(C3CCCC3)CC2)cc1 (stereo not drawn)	0.8%	22%	16	u	0.7	8%
COc1ccccc1C(=O)Nc1cccc2c1CCCC2	-17%	4%[15.4 µM]	0.8	12	1.5	-8%
Nc1ccc(S(=O)(=O)NC2(C(F)(F)F)NC(=O)N(c3ccc(F)cc3)C2=O)cc1 (stereo not drawn)	x	14%	x	17	-0.6	6%
C[N+]1(CC(=O)OCCCc2ccccc2)CCOCC1	-1.1%	-4%	-1.0	-2	1.2	-2%
O=C1C=C(/C=C/C2C=CC=CC2)C[C@@H](c2ccc(Cl)cc2)C1 (stereo partly drawn)	-1.4%	x	x	27	-0.9	-14%
COc1ccc(NC2CS(=O)(=O)CC2OC(=O)c2ccc(F)cc2)cc1 (stereo not drawn)	0.2%	19%	-2.6	5	-0.2	-1%
O=C(O)c1ccc(NC(=O)C(c2ccccc2)c2ccccc2)cc1	-0.6%	23%	0.1	29	0.6	-11%
COc1ccc(NC(=O)COc2ccc(C)c(C)c2)cc1S(=O)(=O)N1CCCCC1	x	-16%[15.4 µM]	x	-15	0.5	-18%
C[C@@H]1CN([C@H](C)CO)C(=O)c2cc(NC(=O)Nc3ccc(C(F)(F)F)cc3)ccc2O[C@H]1CN(C)S(=O)(=O)c1ccccc1	-2.3%	x	x	0	-0.1	5%
Cc1cccc(C)c1OCC(=O)N1CCc2ccccc2C1	-0.5%	-103%	-3.5	-9	0.3	-4%
Cc1oc(-c2ccccc2)cc1C(=O)Nc1cccc(/C=C/C(=O)O)c1	x	-15%[15.4 µM]	-4.9	-1	0.3	-7%
CCC1CCCCN1CCCNC(=O)C1CCN(c2ncnc3c2nc2n3CCCCC2)CC1 (stereo not drawn)	0.2%	u	-1.5	-8	-0.2	-4%
O=C(c1ccco1)N1CCN(C(=O)C23CC4CC(CC(C4)C2)C3)CC1	-3.7%	-3%[15.4 µM]	0.5	12	0.6	4%
CC(C)NC(=O)/C(C#N)=C\c1ccc(N(C)C)o1	2.0%	-3%[15.4 µM]	1.2	0	8.0	u
COC(=O)c1ccccc1NC(=O)CSc1nncn1-c1ccccn1	x	-2%[15.4 µM]	-8.7	-16	0.0	10%
COc1ccccc1CN(C(=O)c1ccco1)C(C(=O)NC1CCCC1)c1ccncc1 (stereo not drawn)	3.0%	22%	u	2	-1.4	-4%
COC(=O)C(NC=O)C(O)(Cc1ccccc1)C(F)(F)F (stereo not drawn)	-2.5%	-9%	0.2	1	-0.1	8%
COc1cc(-c2ccc3oc(-c4ccsc4)c(C#CC4(O)CCCCC4)c3c2)cc(OC)c1OC	4.6%	x	x	37	-1.2	2%
CCc1ccc(NC(=S)NCC2CCCN2CC)cc1 (stereo not drawn)	0.9%	9%[15.4 µM]	2.2	-4	-1.3	7%
O=C(Nc1ccc(Cl)cc1F)C1CCN(S(=O)(=O)c2cccnc2)CC1	-1.9%	-32%[inhibitor]	2.8	6	-1.0	11%
Nc1nc2n(n1)C(c1cccs1)CC(c1ccccc1)N2 (stereo not drawn)	u	-30%	0.3	6	2.9	11%
C=CCn1c(SCc2nc3ccccc3[nH]2)nnc1-c1ccc(OC)cc1	-2.2%	-2%	3.3	31	0.0	-5%
CCOC(=O)N1CCN(C(=O)CSc2ccc(C(=O)OC)cc2[N+](=O)[O-])CC1	-0.2%	14%	-10	1	0.3	-7%
O=c1[nH][nH]cc1C=NCc1cccnc1	0.8%	3%	0.6	14	-0.4	0%
CCOC(=O)c1ccc(NC(=S)NCc2ccc(S(N)(=O)=O)cc2)cc1	0.8%	u	-2.0	4	0.0	0%
CC(C)(C)C(=O)Nc1cccc(C(=O)c2cccc(NC(=O)C(C)(C)C)c2)c1	1.1%	-2%	0.3	-3	0.7	-4%
O=C(CN(Cc1ccc2c(c1)OCO2)C(=O)CSc1nc2ccccc2o1)NC1CCCCC1	0.0%	7%	-1.2	6	0.4	-20%
COc1cccc(NC(=O)CN(C)C(C)C(=O)Nc2ccc(S(=O)(=O)N3CCCC3)cc2)c1 (stereo not drawn)	x	-7%[15.4 µM]	-0.7	1	0.4	-10%
O=C1c2ccccc2C(Nc2ccc(Cl)cc2)N1CCN1CCOCC1 (stereo not drawn)	-2.1%	-37%	-2.7	-8	-0.4	0%
O=C1C=CN2CCCCC2CC1 (stereo not drawn)	-14%	x	x	-2	-0.1	-4%
COc1cc(C(=O)Nc2ccc3oc(-c4ccccc4)nc3c2)cc(OC)c1OC	3.8%	x	x	16	-0.2	x
Cc1ccc(N2CCN(C(=O)c3c(C)oc4nc(C)nc(N5CCCC5)c34)CC2)c(C)c1	0.1%	x	x	-11	0.6	x
O=C1c2cccnc2C(=O)N1Cc1ccc(F)cc1	0.8%	-57%[inhibitor]	-0.1	1	-0.5	21%
CC(=O)Nc1ccc(S(=O)(=O)N(C)CC(=O)OCC(=O)NC(C)C23CC4CC(CC(C4)C2)C3)cc1 (stereo not drawn)	1.4%	-27%	2.9	-8	-0.3	-10%
CCc1cccc(-n2nnc(-c3nsc(NC(=O)c4cccc(OC)c4)n3)c2C)c1	-5.5%	x	x	34	1.2	x
CN(c1ccccc1)S(=O)(=O)c1ccc(C(=O)NCc2ccc(F)cc2)cc1	-0.4%	-4%	x	-12	0.7	7%
Cc1cc(C(=O)OCC(=O)Nc2cc(S(=O)(=O)N(C)C)ccc2Cl)c2ccccc2n1	-0.4%	5%[15.4 µM]	1.2	-2	0.8	6%
O=c1oc(/C=C/c2ccco2)nc2sc3c(c12)CCC3	-0.9%	32%	9.3	-4	-0.1	-12%
COc1cccc(C(=O)/C=C/Nc2ccc(S(=O)(=O)Nc3nc(C)cc(C)n3)cc2)c1	2.2%	0%	6.3	3	-0.8	-20%
CC(=O)Nc1ccc(NC(=O)c2ccccc2-n2cnnn2)cc1	x	20%[15.4 µM]	x	13	1.0	11%
FC(F)(F)c1nnc(-c2ccccc2)nc1Sc1ccccc1	0.3%	-31%[inhibitor]	1.2	13	0.9	-8%
Cc1ccc(OCc2ccc(C(=O)Nc3nccs3)o2)cc1C	-3.2%	-16%	-0.4	-3	-0.1	-12%
Cn1ccnc1SCC(=O)Nc1ccc(Oc2ccccc2)cc1	-1.3%	8%	-0.8	5	0.5	5%
COc1ccc(Cl)cc1C(=O)NCc1ccco1	-4.3%	-2%	-0.7	x	x	2%
CN(Cc1cn(C)nc1-c1ccccc1F)Cc1nccn1C	x	1%	2.8	10	0.0	9%
Cc1ccc2cc(C#N)c(SCC(=O)NCC3CCCO3)nc2c1 (stereo not drawn)	-5.8%	u	-0.1	-9	0.3	-8%
C[C@@H]1CN([C@H](C)CO)C(=O)c2cc(NC(=O)Nc3ccc(F)cc3)ccc2O[C@@H](C)CCCCO[C@H]1CN(C)Cc1ccc(C(=O)O)cc1	-2.3%	u	x	11	-0.5	x
Cc1ccc(NC(=O)COC(=O)C2CCC(=O)N2)c(S(=O)(=O)N2CCOCC2)c1 (stereo not drawn)	-3.2%	8%	0.9	6	1.6	7%
O=C1CC(N(Cc2ccco2)C(=O)Nc2ccc(F)cc2)C(=O)N1c1ccc(F)cc1 (stereo not drawn)	0.3%	16%	-0.7	-9	-0.2	-23%
CC1(C)Cc2cccc(OCC(=O)Nc3ccc(OCC(N)=O)cc3)c2O1	-1.1%	-42%[inhibitor]	-2.0	-5	-0.5	-7%
O=C(CSc1ncn[nH]1)NCCc1ccc(Cl)cc1Cl	x	1%	x	-13	0.5	-7%
COc1ccc(-n2c(SCC(=O)NCC3CCCO3)nc3c(c2=O)SCC3)cc1 (stereo not drawn)	-1.4%	u	x	6	-0.5	-7%
COc1cc(C(=O)NCc2ccc(S(N)(=O)=O)cc2)ccc1OCC(=O)Nc1cccc(C(F)(F)F)c1	x	28%[15.4 µM]	x	-11	2.3	12%
COc1ccc(-c2nnn(CC(=O)N(CCCO)C(C(=O)NC3CCCC3)c3ccc(F)cc3)n2)cc1 (stereo not drawn)	x	4%[15.4 µM]	-4.2	-2	0.3	x
Cc1nc2ccc(S(=O)(=O)NCC(=O)N(C)Cc3ccccc3)cc2s1	0.6%	-56%[inhibitor]	2.4	7	-0.6	-2%
Cc1nc2c(cc(Oc3ccc(S(=O)(=O)N4CCOCC4)cn3)c3ccsc32)s1	-2.5%	29%	11	-18	1.3	-5%
COc1cccc(/C=N/NC(=S)NC2CC3CC2C2C=CCC32)c1O (stereo not drawn)	x	-11%[15.4 µM]	5.0	-7	0.6	-3%
CCn1cc(S(=O)(=O)CC(=O)Nc2ccc3c(c2)OCO3)c2ccccc21	-0.1%	-47%[inhibitor]	1.6	-1	0.1	-7%

Next part.
SMILES	ClpP mod	gsp ag	Menin MLL FP FL	TRPML1 inh	TRPML1 agonist	gsp antag
O=C(O)CSc1ccn(Cc2ccccc2)c1	-0.9%	2%	x	6	-0.3	x
COc1ccc(CCN(Cc2cc3cccc(C)c3[nH]c2=O)C(=O)N2CCCC2)cc1OC	-27%	-11%	1.3	2	1.3	0%
O=C(NCCCN1CCCC1)C1CCN(C(=O)c2cc3sccc3n2Cc2ccc(F)cc2)CC1	1.6%	u	8.1	3	-0.1	6%
COc1ccccc1CCC(=O)Nc1cccc(S(=O)(=O)N2CCCC2)c1	-1.7%	-60%[inhibitor]	1.1	-18	0.6	-26%
COc1ccc(NC(=O)C2CCN(S(=O)(=O)c3ccc4c(c3)NC(=O)C(C)S4)CC2)cc1 (stereo not drawn)	2.1%	2%	x	2	-0.9	-8%
Cc1noc(C)c1COc1cccc(C(=O)OC(C)C#N)c1 (stereo not drawn)	x	0%[15.4 µM]	-4.1	7	0.9	x
COC(=O)CCC(=O)Nc1ccc(N=Nc2ccccc2)cc1	-4.1%	-1%[15.4 µM]	-3.8	-14	-1.6	0%

Source: PubChem BioAssay (National Center for Advancing Translational Sciences (NCATS))
